ugtP null kill – kills S. aureus RN4220 lacking UgtP | 330,000 tested, 0.54% active | growth inhibition, % (no concentration beside the values) | S. aureus RN4220 ugtP deletion, OD600 growth, 16 h; some inactives read as strong as hits;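 active = z-score under -3 and OD600 up to 0.15 on both plates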;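 note: plate controls were untreated wells for no effect and antibiotic for full effect; wells of about 80 µL received 100 nL stock; the first replicate is given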
PrP 5UTR inh – suppresses PrP 5' UTR mRNA reporter expression. cell-based PrP 5' UTR mRNA reporter, plate reader. inhibition, % (no concentration beside the values). 340,000 tested, 0.35% active;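 active = every replicate at 50% or more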;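 note: 0 = median of the neutral control wells; tested in H4 reporter cells; numbers are from one replicate; inactives centre near -14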
Sa RN4220 lethal – S. aureus RN4220 growth inhibition; inhibition, % (test concentration not listed); 330,000 tested, 0.33% active; OD600, 16 h;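 active = z-score of -3 or lower and OD600 up to 0.18 on both plates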;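 note: plate controls were untreated cells for no effect and reference antibiotic for full effect; stock transfer was 100 nL into about 80 µL; one replicate is shown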
BJeLR lethal – BJeLR cell viability loss; BJeLR (HRASV12) viability, CellTiter-Glo ATP luminescence, 48 h; reference of the scale not given here; inhibition, % (no concentration beside the values); 300,000 tested, 0.17% active; AID 1554;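 active = replicate mean above 50%; inconclusive = above 50% but judged a plate artefact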;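 note: 50 nL library stock added to about 25 µL; numbers are from one replicate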
Mtb hypoxia inh – reduces hypoxia-regulated biosensor signal in M. tuberculosis. M. tuberculosis hypoxia-regulated fluorescent reporter, fluorescence. fluorescence inhibition, % (concentration not given with the values). 300,000 tested, 0.1% active. AID 1159583;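 active = 35 to 45% if threefold the growth effect, above 45% if 1.5-fold the growth effect; inactive = the rest, general growth blockers included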;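 note: wells of about 50 µL received 100 nL stock; 0% = vehicle wells and 100% = reference inhibitor wells; whole bacteria with a GFP reporter of the hypoxia response; strong numbers were not always called active; many hits fall short of the cut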
Bead autofluor – counter-screen for toxin protease inhibitors: compound fluorescence; compound autofluorescence counterscreen, microsphere flow cytometry; stronger effect = higher value; fluorescence intensity (no concentration beside the values); 360,000 tested, 3.1% active; AID 624483;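 active = at least 3 SD above the mean of all compounds, about 16000 in these data; inconclusive = too few beads counted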;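 note: 100 nL of 1 mM stock went into each well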
Mtb hypoxia inh growth – also measured in Mtb hypoxia inh; calls as there; growth inhibition, %; measured here: M. tuberculosis growth (absorbance);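 0% = vehicle and 100% = reference antibiotic; read after six days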
* hit, by the source's call; ? = inconclusive; . = no result given. Compounds as they come (roughly 4% active in at least one column).

SMILES	ugtP null kill	PrP 5UTR inh	Sa RN4220 lethal	BJeLR lethal	Mtb hypoxia inh	Mtb hypoxia inh growth	Bead autofluor
COc1ccc(C)cc1NC(=O)CSc1nnnn1Cc1ccccc1	2	-14	1.1	3	3	4	3423
N=Nc1c(O)n(CC(=O)Nc2ccccc2)c2ccccc12	1	-17	2.6	10	2	-6	4008
COc1ccc(OCC(=O)NC(=S)Nc2ccc3c4c(cccc24)CC3)cc1	5	-31	-4.0	-12	-8	4	2638
CC(C)CN(C(=O)COC(=O)c1ccc(Cl)nc1)c1c(N)n(Cc2ccccc2)c(=O)[nH]c1=O	.	-18	.	-10	.	.	5904
COc1ccc(CNc2nc(-c3cccnc3)nn2C(=O)CC(C)C)cc1	9	-9	2.5	1	10	12	4953
CN(C(=O)c1ccc2c(c1)OCO2)C1CCS(=O)(=O)C1 (stereo not drawn)	6	-12	6.4	6	0	-9	?
O=C(c1ccc(S(=O)(=O)N2CCOCC2)cc1)N1CCN(c2ccccn2)CC1	-4	-26	3.6	.	9	7	4464
Cc1cnc(C(=O)Oc2ccc(-c3ccccc3)cc2)cn1	0	-19	6.0	-4	2	-4	5563
CCOc1cc(C(=O)NCCN2C(=O)S/C(=C\c3cccnc3)C2=O)cc(OCC)c1OCC	.	-13	.	-9	.	.	2531
O=C(N/N=C/c1c[nH]c2ccc(Br)cc12)c1ccncc1	.	-12	.	-12	.	.	1961
C=CCCC(=O)N1CCC(CCC(=O)NC2CC2)CC1	-2	-18	-0.1	-2	-5	1	5898
COc1cc(C(=O)NC(=S)Nc2ccc([N+](=O)[O-])cc2)cc(OC)c1OC	.	8	.	-1	.	.	7365
O=C(C1CC(=O)N(c2ccc3c(c2)OCCO3)C1)N1CCN(c2ccccc2O)CC1 (stereo not drawn)	7	-19	6.2	4	5	-1	4169
CCCC(=O)Oc1ccc(N(C(=O)CCC)S(=O)(=O)c2cccc([N+](=O)[O-])c2)cc1	.	-23	.	5	.	.	2003
CC1CC(C)(C)NC2(CCCC2)N1 (stereo not drawn)	0	-11	1.5	.	3	-4	2928
CCOC(=O)Cn1ccc(NC(=O)c2ccc(F)cc2)n1	6	-29	1.3	0	10	0	3595
Cc1ccc2c(c1)C(=O)C(=O)N2CC(=O)OC(C)C	-4	-1	7.9	-9	12	12	3273
O=C(CCCCCn1c(=S)[nH]c2cc3c(cc2c1=O)OCO3)N1CCN(c2ccc(F)cc2)CC1	1	-14	3.5	6	2	-1	4579
Cn1c(=O)oc2cc(S(=O)(=O)NCCC(=O)Nc3ccc4c(c3)OCCO4)ccc21	8	-13	1.2	-2	-1	-1	15829
Cc1ccc(S(=O)(=O)N2CCOCC2)cc1C(=O)OCC(=O)NCc1ccccc1	10	-10	1.5	1	-1	-8	4647
CCN(Cc1ccccc1)C(c1ccccn1)c1nnnn1C1CCCCC1 (stereo not drawn)	12	-13	8.8	-5	7	6	3509
COc1ccc(C2=NOC(C(=O)Nc3cc(C)on3)C2)cc1OC (stereo not drawn)	8	-12	1.8	-4	0	-5	3577
CCOC(=O)c1c(NC(=O)CSc2nnc(CNc3ccc(Cl)cc3)o2)sc(C)c1C	-13	-5	7.2	7	.	.	4670
Cc1ccc2c(c1)CCCN2C(=O)c1cc(C)c(C)s1	0	-34	-1.9	.	0	4	4486
CC1CN(C(=O)Cn2cc(S(=O)(=O)CC(=O)N3CCOCC3)c3ccccc32)CC(C)O1 (stereo not drawn)	5	-21	2.2	9	12	10	5646
COc1cc2c(O)c3c(c(-c4ccc5c(c4)OCO5)c2cc1OC)C(=O)OC3	4	-20	-0.2	10	6	0	11263
CN(C)S(=O)(=O)Nc1ccc(Br)cc1F	4	-26	2.6	-3	10	3	6581
O=C(c1cccs1)N1N=C(c2ccccc2)CC1c1ccccc1 (stereo not drawn)	-7	-17	6.0	-5	-3	-7	9487
O=C(Nc1cc2c(cc1Br)OCCO2)c1ccc(=O)[nH]c1	1	1	0.9	.	6	-2	3776
Cc1nnc(NN=CC2CC=CCC2)[nH]c1=O (stereo not drawn)	12	.	5.1	.	1	-2	.
O=C(Nc1ccccc1F)C(=O)Nc1cccc2ccccc12	9	-42	-1.7	-1	14	2	3567
COc1ccc(-c2c(-c3cc(OC)cc(OC)c3)n(C)c3ccc(-c4ccc5c(c4)OCCO5)cc23)cc1	-1	-15	7.2	.	7	2	2813
CCc1nnc(NC(=O)[C@@H](NC(=O)c2ccc(C(C)(C)C)cc2)C(C)C)s1	10	-11	2.2	2	1	1	2197
O=C(NCc1nc2ccccc2[nH]1)C1=C[C@H](c2coc3ccccc3c2=O)C[C@H](OCCCCO)O1	.	-20	.	-4	.	.	2944
CCN(CC)CCNC(=O)C(C)c1nn(CC)c(=O)c2ccccc12 (stereo not drawn)	8	-4	4.3	-13	6	6	22461*
CCCCN1CC(=O)N2Cc3[nH]c4ccccc4c3C[C@H]2C1=O	-4	-17	0.0	3	4	0	2942

Reformatted field by field: entries from further up.
> O=C(c1cccs1)N1N=C(c2ccccc2)CC1c1ccccc1 (stereo not drawn)
  ugtP null kill: -7 | PrP 5UTR inh: -17 | Sa RN4220 lethal: 6.0 | BJeLR lethal: -5 | Mtb hypoxia inh: -3 | Mtb hypoxia inh growth: -7 | Bead autofluor: 9487

> O=C(Nc1cc2c(cc1Br)OCCO2)c1ccc(=O)[nH]c1
  ugtP null kill: 1 | PrP 5UTR inh: 1 | Sa RN4220 lethal: 0.9 | BJeLR lethal: . | Mtb hypoxia inh: 6 | Mtb hypoxia inh growth: -2 | Bead autofluor: 3776

> Cc1nnc(NN=CC2CC=CCC2)[nH]c1=O (stereo not drawn)
  ugtP null kill: 12 | PrP 5UTR inh: . | Sa RN4220 lethal: 5.1 | BJeLR lethal: . | Mtb hypoxia inh: 1 | Mtb hypoxia inh growth: -2 | Bead autofluor: .

(further entries)
SMILES	ugtP null kill	PrP 5UTR inh	Sa RN4220 lethal	BJeLR lethal	Mtb hypoxia inh	Mtb hypoxia inh growth	Bead autofluor
Cc1cnc(NC(=O)CCCc2nc3ccccc3s2)s1	10	-19	2.8	9	.	.	2878
Cc1cccc(OCC(O)Cn2c(NCc3cccnc3)nc3c2c(=O)[nH]c(=O)n3C)c1 (stereo not drawn)	-1	-2	2.1	8	.	.	2631
CC1(C)CC(=O)C(/C=N/n2cnc3ccccc3c2=O)=C(O)C1	.	-20	.	-2	.	.	9560
COc1ccc(S(=O)(=O)N(C)C2CCS(=O)(=O)C2)cc1OC (stereo not drawn)	10	-1	5.5	-9	17	-2	8055
COC(=O)c1sc(=S)n(-c2ccccc2OC)c1N	-4	-16	4.4	-2	11	1	8939
Cc1ccc(S(=O)(=O)NNc2nc3ccccc3nc2C(F)(F)F)cc1	5	-5	11	3	.	.	2357
O=C(CCS(=O)(=O)c1ccccc1Cl)NCCC1=CCCCC1	2	-22	1.4	-6	0	3	5430
CCc1nc2ccc(C(=O)NCCc3ccc(OC)c(OC)c3)cc2nc1CC	10	-26	2.1	-2	3	5	6149
COc1cccc(CNC(=O)CSCC(=O)Nc2cc(C)on2)c1	2	-84	1.2	-3	5	2	5831
COCC(C)n1c(C)cc(C(=O)COC(=O)c2ccc3ncsc3c2)c1C (stereo not drawn)	2	-23	0.5	.	.	.	4678
Cc1[nH]c2ccccc2c1C(=O)C(=O)NCCCn1ccnc1	2	-15	-1.2	-4	12	-3	3970
Cn1c2ccccc2c2cc(C=NNC(=O)c3cc(O)cc(O)c3)ccc21	-1	.	-0.5	.	-4	1	.

Compounds above that contain bromine (3):
SMILES	ugtP null kill	PrP 5UTR inh	Sa RN4220 lethal	BJeLR lethal	Mtb hypoxia inh	Mtb hypoxia inh growth	Bead autofluor
O=C(N/N=C/c1c[nH]c2ccc(Br)cc12)c1ccncc1	.	-12	.	-12	.	.	1961
CN(C)S(=O)(=O)Nc1ccc(Br)cc1F	4	-26	2.6	-3	10	3	6581
O=C(Nc1cc2c(cc1Br)OCCO2)c1ccc(=O)[nH]c1	1	1	0.9	.	6	-2	3776

(further entries)
SMILES	ugtP null kill	PrP 5UTR inh	Sa RN4220 lethal	BJeLR lethal	Mtb hypoxia inh	Mtb hypoxia inh growth	Bead autofluor
O=C(O)CCC(=O)Nc1ccccc1C(=O)NCc1ccco1	1	-9	0.4	4	.	.	3212
O=C(CCS(=O)(=O)c1cccc2nsnc12)N1CCN(C(=O)c2ccco2)CC1	1	-13	1.5	-5	4	7	9215
CCN(CC)C(=O)CSc1n[nH]c(=S)n1N	9	-34	2.4	4	0	14	4329
O=C(COc1ccccc1[N+](=O)[O-])N/N=C/c1ccncc1	.	-25	.	-2	.	.	2048
Cc1ccccc1C(=O)N1CCC(C(=O)Nc2ccc(S(=O)(=O)N3CCCC3)cc2)CC1	2	-20	-3.5	-5	6	8	4112
Cc1ccsc1C(=O)Nc1cccc(S(=O)(=O)N(C)C)c1	7	-15	5.9	-4	13	4	2583
C[C@]12C(=O)N(c3ccc(F)cc3)C(=O)N1[C@H]1c3ccccc3OC[C@@H]1[C@H]2c1ccccc1	-12	-6	-24	.	-1	7	3857
CC(C)[C@H](NC(=O)OCc1ccccc1)C(=O)OCC(=O)NC1(C#N)CCCC1	-2	2	1.5	-4	10	7	5695
CC(=O)Nc1ccc(NC(=O)CCC(=O)OCC(=O)c2ccc(F)cc2)cc1	-2	9	-0.3	17	-5	-7	4171
Cc1cc2cc3c(cc2nc1SCC(=O)N1CCN(C(=O)c2ccco2)CC1)OCO3	-12	-12	3.8	-19	3	5	4407
CCNCCC(CCC(C)C)c1ccc2c(c1)OCO2 (stereo not drawn)	-1	-4	0.7	-3	11	19	.
CS(=O)(=O)N1CCN(c2ccccc2NC(=O)c2ccc(Cl)cc2)CC1	-3	-1	-14	2	4	-3	2787
CC1CCCCN1C(=O)CSc1nnc(-c2ccco2)n1CC1CCCO1 (stereo not drawn)	6	-1	2.7	-17	13	4	8350
CC(NC(=O)COc1ccccc1-c1ccccc1)c1ccccc1 (stereo not drawn)	-1	8	16	-1	-2	2	2487
O=C(NCCN1CCOCC1)c1cc(-c2ccccc2Cl)nc2ccccc12	2	-17	1.6	3	10	6	4886
Cc1cc(C)nc(SCc2nnc(SCC(=O)Nc3ccccc3C)n2Cc2ccco2)n1	10	6	4.9	-8	10	9	6673
CCOc1ccccc1NC(=O)Nc1ccc(Cl)cc1	-15	-1	-7.3	1	-4	5	1969
Nn1c(SCCOc2ccc(Cl)cc2)nnc1-c1cccnc1	5	-47	6.1	-17	7	5	5964
O=C1C=CC(=O)N1c1cccc2cccnc12	-7	-14	0.3	.	6	3	4078
Brc1cccc2sc(N3CCN(c4ccccc4)CC3)nc12	20	-36	3.1	-2	16	7	4394
CCN1C(=O)C2C(c3ccc(-c4ccc(OC)cc4)c(OC)c3)N[C@@](Cc3ccccc3)(C(=O)OC)C2C1=O (stereo partly drawn)	17	.	9.4	.	10	10	.
Cc1ccc(C)c(C2C(=O)c3ccccc3C2=O)c1	5	-11	6.1	1	4	3	5703
CC(O)CNC(=O)c1ccc(-c2nn(C)c(=O)c3ccccc23)cc1 (stereo not drawn)	0	-18	0.4	7	3	8	8897
S=C(NC1CCCCC1)NN1CCOCC1	-7	-9	0.0	-4	-5	8	4109
Cc1ccc(NS(=O)(=O)c2c(C)[nH]c(C)c2C(=O)N2CCCCC2)c(C)c1	2	-9	2.2	-14	8	-1	5790
Cc1ccccc1OCCC(=O)N1CCN(S(=O)(=O)c2ccc(Cl)cc2)CC1	-9	-10	8.9	6	14	6	6424
COc1ccc(N2CCN(C(=O)c3cccc4nc(C)oc34)CC2)cc1	3	-18	6.1	24	10	3	4505
COc1ccc(C(=O)NC(=S)Nc2ccc3oc(=O)ccc3c2)cc1	.	-1	.	3	.	.	7087
Cc1nc(NC(=O)CSc2nnc(C3CC3)n2C)sc1C(=O)N(C)C	3	-16	3.6	-17	5	9	6657
CCOC(=O)c1c(C)oc2ccc(O)c(CN(C)C)c12	-8	-32	-3.5	9	.	.	4213
Cc1ccc(-n2nnnc2SC(C(=O)c2c[nH]c3ccccc23)c2ccccc2)cc1 (stereo not drawn)	90*	2	65	12	2	6	1947
CCCC(=O)c1ccc(N2CCN(C(=O)c3ccccc3)CC2)c(F)c1	23	-13	8.2	.	.	.	6006
COc1cccc(C2C=C(c3cccs3)Nc3ncnn32)c1OC (stereo not drawn)	-5	-17	-13	-9	8	-3	3262
O=C(NCCCc1ccccc1)Nc1cccc(Cl)c1	-18	-34	-1.5	8	5	13	10610
COc1ccc(/C=C/C(=O)O)cc1OC	-1	-22	1.0	.	.	.	5592
O=C(OCC(=O)C12CC3CC(CC(C3)C1)C2)c1ccccc1O	6	-39	1.4	.	2	0	2738
